From PubChem
YB-1 expression: YB-1 expression inhibition; U2OS, qRT-PCR YB-1 vs CDIP delta delta Cp, 16 h; active compounds read high; zero = DMSO, each unit about twofold; delta delta Cp (YB-1 minus CDIP) (concentration not given with the values); 30,000 compounds, 0.37% hits; AID 434959;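 active = delta delta Cp rounded down to an integer at or above 3, about 3 SD of DMSO wells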;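 note: higher means less YB-1 transcript or more CDIP transcript relative to DMSO; stock transfer was 100 nL into about 100 µL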
Hedgehog inh: Sonic Hedgehog pathway inhibition | AID 2313 | inhibition, % (test concentration not listed) | 22,000 compounds, 2.1% hits | Shh-LIGHT2 Gli-luciferase reporter, 30 h;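 active = replicate mean of 65% or more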;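 note: pathway switched on by Shh-conditioned medium diluted 1 in 25 in low serum; 100 nL library stock added to about 40 µL; 0% = median of neutral wells and 100% = positive control level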
PD-1 reversal: reversal of PD-1 mediated T-cell inhibition. 29,000 tested, under 10 active. primary human CD4 T cells, PD-L1 beads, CellTiter-Glo 96 h. activation, % (concentration not given with the values);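 active = replicate mean of 50% or more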;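 note: 0% = median vehicle wells and 100% = positive control; 100 nL library stock added to about 50 µL; numbers are from one replicate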
MITF inh: MITF inhibition; TRPM1 promoter luciferase, luminescence, 24 h; inhibition, % (concentration not given with the values); 37,000 compounds, 0.28% hits;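 active = most replicates at 85% or more, or half of them and the mean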;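 note: human melanocyte line stably carrying TRPM1 promoter luciferase reporter; 0% = vehicle wells and 100% = a positive control; the first replicate is given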
* = called active by the depositor; x = not tested or not shown.

SMILES	YB-1 expression	Hedgehog inh	PD-1 reversal	MITF inh
O=C(CCc1nc(-c2ccc(Cl)cc2)no1)Nc1cccnc1	x	x	2.8	14.0
Cc1noc(C)c1S(=O)(=O)N(C)C[C@H]1Oc2ccc(NC(=O)NC(C)C)cc2CC(=O)N([C@@H](C)CO)C[C@H]1C	-0.764	x	-0.9	-8.7
COc1ccc(S(=O)(=O)Nc2cccc3c2O[C@@H](CN(C)C(=O)Nc2ccccc2)[C@@H](C)CN([C@H](C)CO)C3=O)cc1	-0.201	3.0	-1.3	8.0
CCOC(=O)CSc1nc2cccnc2s1	-0.563	-24.2	0.8	7.7
C[C@@H]1CN([C@@H](C)CO)C(=O)c2cc(NC(=O)Cc3ccccc3)ccc2O[C@H]1CN(C)Cc1ccc(Cl)c(Cl)c1	0.14	x	-0.5	35.4
COc1ccc(S(=O)(=O)Nc2ccc3c(c2)C(=O)N([C@H](C)CO)C[C@@H](C)[C@H](CN(C)C(=O)Nc2c(C)noc2C)O3)cc1	0.0899	x	-1.3	-0.7
C[C@@H]1CCCCO[C@@H](CN(C)Cc2ccc(C(F)(F)F)cc2)[C@@H](C)CN([C@H](C)CO)C(=O)c2cc(NS(=O)(=O)c3ccc(Cl)cc3)ccc2O1	-0.0495	-0.6	-7.6	47.8
COc1ccc(S(=O)(=O)Nc2ccc3c(c2)C(=O)N([C@H](C)CO)C[C@@H](C)[C@@H](CN(C)S(=O)(=O)c2ccc(Cl)cc2)O3)cc1	-0.303	-24.0	x	7.8
CC(=O)Nc1c(O)nc(SCC(=O)N2CCN(c3ccc(F)cc3)CC2)[nH]c1=O	x	x	1.4	-6.0
C[C@H](CO)N1C[C@H](C)[C@@H](CN(C)C)Oc2c(NC(=O)Nc3ccc(F)cc3)cccc2C1=O	0.235	-14.8	x	-3.1
CCOC(=O)c1c(C)oc2ccc(OCC(=O)c3ccc(Br)cc3)cc12	x	x	2.4	-14.9
C[C@H]1CN([C@@H](C)CO)C(=O)Cc2cc(NC(=O)c3ccncc3)ccc2O[C@@H]1CN(C)Cc1ccc(C(F)(F)F)cc1	0.0761	-18.8	-1.0	-6.0

Reprinted from the part before: 5 entries, followed by the next part.
SMILES	YB-1 expression	Hedgehog inh	PD-1 reversal	MITF inh
COc1ccc(S(=O)(=O)Nc2ccc3c(c2)C(=O)N([C@H](C)CO)C[C@@H](C)[C@@H](CN(C)S(=O)(=O)c2ccc(Cl)cc2)O3)cc1	-0.303	-24.0	x	7.8
CC(=O)Nc1c(O)nc(SCC(=O)N2CCN(c3ccc(F)cc3)CC2)[nH]c1=O	x	x	1.4	-6.0
C[C@H](CO)N1C[C@H](C)[C@@H](CN(C)C)Oc2c(NC(=O)Nc3ccc(F)cc3)cccc2C1=O	0.235	-14.8	x	-3.1
CCOC(=O)c1c(C)oc2ccc(OCC(=O)c3ccc(Br)cc3)cc12	x	x	2.4	-14.9
C[C@H]1CN([C@@H](C)CO)C(=O)Cc2cc(NC(=O)c3ccncc3)ccc2O[C@@H]1CN(C)Cc1ccc(C(F)(F)F)cc1	0.0761	-18.8	-1.0	-6.0
CSc1nc(C)cc(OCC(=O)Nc2ccc(Cl)cc2)n1	x	x	-0.9	-7.5
C[C@@H]1CN([C@@H](C)CO)C(=O)c2cccc(NC(=O)C3CCOCC3)c2O[C@@H]1CN(C)Cc1ccc(C(=O)O)cc1	0.381	-1.7	2.3	8.3
O=C(COc1ccc(S(=O)(=O)N2CCOCC2)cc1)Nc1ccc(F)c(Cl)c1	x	x	-2.1	-11.4
CC(C(=O)c1ccccc1)[n+]1cccc(Br)c1 (centres undefined)	-0.182	-30.1	0.8	-7.8
C/C=C(\C(C)=N\O)c1ccccc1	-0.0825	-1.2	0.8	7.9
COc1ccc(/C=C2\C(=O)c3ccccc3OC2c2ccccc2)cc1 (centres undefined)	-0.168	22.8	-0.3	9.6
C[C@@H]1CN([C@H](C)CO)C(=O)c2cc(NC(=O)Nc3ccc(F)cc3)ccc2O[C@@H]1CN(C)S(=O)(=O)c1ccc(Cl)cc1	0.0642	3.5	0.5	5.0
C[C@@H]1CN([C@H](C)CO)C(=O)c2cccc(N(C)C)c2O[C@H]1CN(C)S(=O)(=O)c1ccccc1	-0.0616	-8.4	-0.1	-10.4
O=C(OC[C@H]1O[C@@H](Oc2ccc(O)cc2)[C@H](O)[C@@H](O)[C@@H]1O)c1ccc(O)cc1	0.416	2.1	x	x
C[C@H](CO)N1C[C@H](C)[C@H](CN(C)S(=O)(=O)c2ccc(F)cc2)Oc2ccc(NC(=O)CCCCCC(=O)Nc3ccccc3N)cc2C1=O	-0.316	x	1.7	3.3
C[C@H](CO)N1C[C@H](C)[C@H](CN(C)C(=O)Nc2ccc(C(F)(F)F)cc2)Oc2ccc(NC(=O)NC3CCCCC3)cc2C1=O	-0.587	43.4	-4.1	22.0
COc1cc(NC(=O)COc2ccc(Cl)cc2)c(C(=O)O)cc1OC	x	x	1.8	-11.4
C[C@@H]1CN([C@@H](C)CO)C(=O)c2cccc(NC(=O)Nc3ccc(F)cc3)c2O[C@H]1CN(C)S(=O)(=O)c1ccccc1	-0.874	2.9	-2.4	3.1
C[C@@H]1CN([C@@H](C)CO)C(=O)c2cc(NC(=O)Nc3ccc(C(F)(F)F)cc3)ccc2O[C@H]1CN(C)S(=O)(=O)c1ccc(F)cc1	0.37	9.7	1.5	-0.6
C[C@H](CO)N1C[C@H](C)[C@@H](CN(C)S(=O)(=O)c2cccs2)Oc2c(NC(=O)c3ccc(-c4nccs4)cc3)cccc2C1=O	-0.365	40.4	x	-11.7
Cc1noc(C)c1S(=O)(=O)Nc1cccc2c1O[C@@H](CN(C)C(=O)NC1CCCCC1)[C@@H](C)CN([C@@H](C)CO)C2=O	-0.654	4.1	-1.6	-1.4
Cc1cc(C)c(NC(=O)CSc2nnc(-c3ccncc3)n2C)c([N+](=O)[O-])c1	x	x	2.3	1.1
CC(=O)Nc1ccc(NC(=O)CN(c2ccc(Br)c(C)c2)S(C)(=O)=O)cc1	x	x	0.6	0.3
O=C(COc1ccc2ccccc2c1Br)NCc1cccnc1	x	x	-0.5	-65.9
CCOC(=O)C1=C(C)NC(C)=C(C(=O)OC)C1c1cccc([N+](=O)[O-])c1 (centres undefined)	-0.608	10.2	x	0.0
C[C@@H]1CN([C@H](C)CO)C(=O)c2cc(NC(=O)C3CC3)ccc2O[C@H]1CN(C)S(C)(=O)=O	-0.000402	-22.7	2.2	-13.6
CS(=O)c1ccc(-c2nc(-c3ccc(F)cc3)c(-c3ccncc3)[nH]2)cc1 (centres undefined)	-0.287	58.1	5.4	-54.0
COc1ccc(-c2nnc(SCC(=O)c3cccc([N+](=O)[O-])c3)n2C)cc1	x	x	-0.4	26.0
C[C@H]1CN([C@@H](C)CO)C(=O)Cc2cc(NC(=O)CCC(F)(F)F)ccc2O[C@@H]1CN(C)C	-0.259	-1.2	x	-2.4
Cc1ccc(S(=O)(=O)N(C)C[C@@H]2Oc3ccc(NC(=O)c4ccncc4)cc3C(=O)N([C@@H](C)CO)C[C@H]2C)cc1	0.0195	8.4	-1.4	-1.4
C[C@H](CO)N1C[C@H](C)[C@H](CN(C)CC2CC2)Oc2ccc(NS(=O)(=O)c3cn(C)cn3)cc2CC1=O	0.0342	-18.3	x	-0.9
Cc1ccc(S(=O)(=O)Nc2ccc3c(c2)CC(=O)N([C@@H](C)CO)C[C@H](C)[C@@H](CN(C)C(=O)Nc2ccc(F)cc2)O3)cc1	0.212	-9.6	1.3	0.9
C[C@H]1CN([C@@H](C)CO)C(=O)Cc2cc(NC(=O)c3ccncc3)ccc2O[C@H]1CN(C)Cc1ccc(C(=O)Nc2ccccc2N)cc1	-0.823	x	-3.1	6.2
CC(C)(C)NC[C@H](O)COc1cccc2c1CCCC2=O	0.298	-51.7	5.0	-7.0
CC(NS(=O)(=O)c1ccc(Br)cc1)C(=O)Nc1cccc(F)c1 (centres undefined)	x	x	0.1	-12.7
C[C@H](CO)N1C[C@H](C)[C@@H](CN(C)S(=O)(=O)c2cn(C)cn2)Oc2ccc(NS(=O)(=O)c3cn(C)cn3)cc2C1=O	-0.359	-24.9	2.2	1.4
C[C@H]1CN([C@@H](C)CO)C(=O)Cc2cc(NC(=O)C3CCCCC3)ccc2O[C@@H]1CN(C)S(=O)(=O)c1ccccc1	-0.23	2.5	x	-2.0
COC(=O)c1ccc(Cl)c(NC(=O)CSc2nnc(-c3cc(OC)cc(OC)c3)o2)c1	x	x	-3.2	-7.2
C[C@@H]1CN([C@H](C)CO)C(=O)c2cccc(NC(=O)C3CCOCC3)c2O[C@@H]1CN(C)Cc1ccc(-c2ccccc2)cc1	-0.151	-17.8	1.9	-3.2
C[C@@H]1CN([C@H](C)CO)C(=O)Cc2cc(NC(=O)Nc3cccc4ccccc34)ccc2O[C@@H]1CN(C)S(=O)(=O)c1cccs1	-0.521	x	-1.5	-6.5
Cc1ccc(S(=O)(=O)N2CCCCCC2)cc1C	-0.552	28.4	-0.5	6.7
C[C@@H]1CN([C@H](C)CO)C(=O)c2cc(NC(=O)CCN3CCOCC3)ccc2O[C@@H]1CN(C)S(=O)(=O)c1ccc(Cl)cc1	-0.421	-13.2	1.1	-7.4
CSC(N)=Nc1c(Cl)cccc1Cl	-0.345	-17.1	0.3	-28.9
O=C(Cn1cnc2ccccc2c1=O)Nc1cccc(C(=O)c2ccccc2)c1	x	x	-0.7	13.5
C[C@@H]1CN([C@@H](C)CO)C(=O)c2cc(NC(=O)Cc3ccccc3)ccc2O[C@H]1CN(C)Cc1ccncc1	-0.056	6.5	-0.6	-1.9
Cc1noc(C)c1NC(=O)Nc1ccc2c(c1)CC(=O)N([C@H](C)CO)C[C@H](C)[C@H](CN(C)C(=O)Nc1cccc3ccccc13)O2	-0.124	x	x	2.6
C[C@@H]1CN([C@@H](C)CO)C(=O)c2cccc(NC(=O)Nc3ccc4c(c3)OCO4)c2O[C@H]1CN(C)C(=O)Nc1ccc(F)cc1	-0.118	22.7	x	-9.5
O=C(COc1ccccc1[N+](=O)[O-])Nc1ccc2oc(-c3cccc(Br)c3)nc2c1	x	x	1.8	-22.4
C[C@@H]1CN([C@@H](C)CO)C(=O)c2cc(NC(=O)Nc3ccc4c(c3)OCO4)ccc2O[C@@H]1CN(C)C(=O)Nc1ccccc1	0.0284	10.0	x	4.2
C[C@@H]1CCCCO[C@H](CN(C)S(=O)(=O)c2ccc(Cl)cc2)[C@@H](C)CN([C@H](C)CO)C(=O)c2cc(NC(=O)C3CCCCC3)ccc2O1	-0.315	19.6	-2.1	-0.2
CCOC(=O)c1cc(C#N)c(Sc2ccc(C)cc2)nc1C(F)(F)F	-0.544	33.5	-2.9	11.9
C[C@H]1CN([C@@H](C)CO)C(=O)c2cc(NC(=O)Nc3ccc4c(c3)OCO4)ccc2O[C@H]1CN(C)S(=O)(=O)c1cccs1	-1.03	x	4.6	-33.1
C[C@@H]1CN([C@H](C)CO)C(=O)c2cc(NC(=O)Nc3ccccc3)ccc2O[C@H]1CN(C)S(=O)(=O)c1cn(C)cn1	-0.494	-13.0	0.8	-2.6
CCOC(=O)C(C)Sc1nnc2c3ccccc3n(C)c2n1 (centres undefined)	x	x	-6.1	26.0
CC1(C)CC[C@@]2(C(=O)O[C@@H]3O[C@H](CO)[C@@H](O)[C@H](O)[C@H]3O)C(C1)C1=CCC3[C@@]4(C)CC[C@@H](O[C@@H]5O[C@H](C(=O)O)[C@@H](O[C@@H]6OC[C@@H](O)[C@H](O)[C@H]6O)[C@H](O)[C@H]5O)C(C)(C)C4CC[C@@]3(C)[C@]1(C)C[C@H]2O (some centres undefined)	-0.126	-9.7	0.4	-8.0
C[C@H]1CN([C@@H](C)CO)C(=O)Cc2cc(NC(=O)Nc3ccc4c(c3)OCO4)ccc2O[C@H]1CN(C)C(=O)NC1CCCCC1	-0.163	-28.8	0.7	-4.9
COc1ccc(NC(=O)Nc2ccc3c(c2)C(=O)N([C@@H](C)CO)C[C@H](C)[C@@H](CN(C)S(=O)(=O)c2cn(C)cn2)O3)cc1	0.0835	16.0	x	1.8
C[C@H](CO)N1C[C@H](C)[C@@H](CN(C)C)Oc2ccc(NC(=O)c3ccncc3)cc2C1=O	-0.0093	-39.9	x	10.8
C[C@H]1CN([C@@H](C)CO)C(=O)c2cccc(NS(=O)(=O)c3cccs3)c2O[C@H]1CN(C)S(C)(=O)=O	-0.00912	-2.3	x	-3.8
C[C@H]1CN([C@@H](C)CO)C(=O)c2cccc(NC(=O)CCCCCC(=O)Nc3ccccc3N)c2O[C@H]1CN(C)S(=O)(=O)c1ccc(F)cc1	x	x	-2.2	9.5
COc1c(O)cc2c(c1O)C(=O)OC(C)C2O (centres undefined)	1.88	-14.0	0.1	1.7
C[C@@H]1CN([C@H](C)CO)C(=O)c2cc(NS(C)(=O)=O)ccc2O[C@H]1CN(C)C(=O)NC1CCCCC1	-0.148	-31.1	0.2	-4.0
O=C1N(c2cccc(Cl)c2)C(=Nc2cccc(Cl)c2)SC12CC2	0.108	-19.4	-1.8	11.9
C[C@@H]1CN([C@H](C)CO)C(=O)Cc2cc(NC(=O)Cc3cn(C)c4ccccc34)ccc2O[C@@H]1CN(C)S(=O)(=O)c1ccc(Cl)cc1	0.0949	8.8	x	24.2
C[C@H]1CN([C@@H](C)CO)C(=O)Cc2cc(NC(=O)C3CCCCC3)ccc2O[C@@H]1CN(C)Cc1ccc(Oc2ccccc2)cc1	0.16	-17.5	x	26.5

This is a subset, so the mix of outcomes need not match the whole.
